Methyltransferases: Primary Screen for Target Class Profiling of Small Molecule Inhibitors of Methyltransferases. AID 1745853, 2022. 3.9% of 25,000 active. purified enzyme, MTase-Glo SAH luminescence; hits give low values. calls only at 40 µM; active = -50% or lower on at least one of six enzymes; inconclusive = the cases between; inactive = as a rule above -30% on all six;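 note: enzymes were COMT GAMT GNMT HNMT NNMT and PNMT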
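Each enzyme was assayed with SAM and its substrate. SAH formation detected by MTase-Glo luminescence; single-point 40 uM screen[…].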
Calls only. % is set by controls: 0 for no effect and ±100 for the full control effect. These rows are one share of the data. The share of hits here may be higher or lower than overall.

For CC[C@H]1C[C@H]2[C@@H]3CCC4=CC(=O)CC[C@@H]4[C@H]3CC[C@]2(C)[C@H]1O the results were Methyltransferases inactive.
`CC[C@H](C)[C@@H]([C@@H](CC(=O)N1CCC[C@H]1[C@H](OC)[C@@H](C)C(=O)N[C@@H](Cc1ccccc1)c1nccs1)OC)N(C)C(=O)[C@@H](NC(=O)C(C)(C)N)C(C)C` gave Methyltransferases inactive.
For CCC1CN2CCc3cc(OC)c(OC)cc3C2CC1CC1=NCCc2cc(O)c(OC)cc21 (stereo unspecified) the results were Methyltransferases active.
For COCCOCC(=O)N1CCC2(CC1)c1nccn1-c1ccccc1CN2CC(C)C the results were Methyltransferases inactive.
Screening CCCCC1C(=O)NC(=O)N(C2CCCCC2)C1=O (stereo unspecified) returned Methyltransferases inactive.
`CC(C)Oc1cccnc1N(C)C1CCN(Cc2ccccc2)CC1` gave Methyltransferases inactive.
For COc1ccc([C@@H]2CN(C(=O)Cc3nonc3C)[C@@H]3C4CCN(CC4)[C@@H]32)cc1 the results were Methyltransferases inactive.
C=C(CO)[C@@]12O[C@@H]1[C@@]1(C)C(=CC2=O)CC[C@@H](O)[C@@H]1C was read as Methyltransferases inactive.
Screening CCOc1ccc(NC(=O)N2Cc3ccccc3-n3cccc3C2c2ccc(C)cc2)cc1 (stereo unspecified) returned Methyltransferases inactive.
For COc1ccc(C2c3cccn3-c3ccccc3CN2C(=O)Nc2ccccc2F)cc1 (stereo unspecified) the results were Methyltransferases inactive.
CCOC(=O)Cc1ccc(NC(=O)N2Cc3ccccc3-n3cccc3C2c2ccccc2C)cc1 (stereo unspecified) was read as Methyltransferases inactive.
`C#C[C@H]1CN2CC[C@H]1C[C@@H]2CNS(=O)(=O)CCC` gave Methyltransferases inactive.
For Cc1ccccc1C1c2cccn2-c2ccccc2CN1C(=O)Nc1cccc(Cl)c1 (stereo unspecified) the results were Methyltransferases inactive.
Screening C=C1C[C@]2(O)[C@@]3(C)CCC(=O)C(C)(C)C3=C(O)C(=O)[C@@]2(C)[C@@H]2C(=O)O[C@@](C)(C(=O)OC)C(=O)[C@@]12C returned Methyltransferases inactive.
CCOC(=O)Cc1ccc(NC(=O)N2Cc3ccccc3-n3cccc3C2c2ccc(F)cc2)cc1 (stereo unspecified) was read as Methyltransferases inactive.
CCCNC(=O)N1Cc2ccccc2-n2cccc2C1c1ccc(OC)c(OC)c1 (stereo unspecified) was read as Methyltransferases inactive.
Screening CC1(C(=O)O)C2CCC(O2)C1(C)C(=O)O (stereo unspecified) returned Methyltransferases inactive.
NCCCP(=O)(O)O was read as Methyltransferases inactive.
For Cc1ccc(Cl)cc1NC(=O)N1Cc2ccccc2-n2cccc2C1c1ccccc1C (stereo unspecified) the results were Methyltransferases inactive.
`O=C1N[C@@H](Cc2ccccc2)CN2CCCC[C@@H]12` gave Methyltransferases inactive.
`O=C(Nc1ccc2c(c1)OCCO2)N1Cc2ccccc2-n2cccc2C1c1ccc(F)cc1` (stereo unspecified) gave Methyltransferases inactive.
O=C(Cc1ccc(Cl)c(Cl)c1)N1CCCCC1CN1CCCC1 (stereo unspecified) was read as Methyltransferases inactive.
For CN1CCc2cc(O)cc3c2[C@H]1Cc1ccc(O)c(O)c1-3 the results were Methyltransferases active.
For CCc1ccccc1NC(=O)N1Cc2ccccc2-n2cccc2C1c1ccc(OC)c(OC)c1 (stereo unspecified) the results were Methyltransferases inactive.
`CSc1ccc(C2c3cccn3-c3ccccc3CN2C(=O)Nc2ccc(C)c(C)c2)cc1` (stereo unspecified) gave Methyltransferases inactive.
CCC1c2cccn2-c2ccccc2CN1C(=O)Nc1cccc(SC)c1 (stereo unspecified) was read as Methyltransferases inactive.
For O=C(NC1CCCC1)N1Cc2ccccc2-n2cccc2C1c1ccccc1Cl (stereo unspecified) the results were Methyltransferases inactive.
Screening COc1ccc(C2c3cccn3-c3ccccc3CN2C(=O)NC(C)C)cc1OC (stereo unspecified) returned Methyltransferases inactive.
`CCC(C)C1NC(=O)C(C(C)=O)=C1O` (stereo unspecified) gave Methyltransferases inactive.
`Cc1nc(CCN)no1` gave Methyltransferases inactive.

For reference, part of the list above:
For Cc1ccccc1C1c2cccn2-c2ccccc2CN1C(=O)Nc1cccc(Cl)c1 (stereo unspecified) the results were Methyltransferases inactive.
Screening C=C1C[C@]2(O)[C@@]3(C)CCC(=O)C(C)(C)C3=C(O)C(=O)[C@@]2(C)[C@@H]2C(=O)O[C@@](C)(C(=O)OC)C(=O)[C@@]12C returned Methyltransferases inactive.
CCOC(=O)Cc1ccc(NC(=O)N2Cc3ccccc3-n3cccc3C2c2ccc(F)cc2)cc1 (stereo unspecified) was read as Methyltransferases inactive.
CCCNC(=O)N1Cc2ccccc2-n2cccc2C1c1ccc(OC)c(OC)c1 (stereo unspecified) was read as Methyltransferases inactive.
Screening CC1(C(=O)O)C2CCC(O2)C1(C)C(=O)O (stereo unspecified) returned Methyltransferases inactive.
NCCCP(=O)(O)O was read as Methyltransferases inactive.
For Cc1ccc(Cl)cc1NC(=O)N1Cc2ccccc2-n2cccc2C1c1ccccc1C (stereo unspecified) the results were Methyltransferases inactive.
`O=C1N[C@@H](Cc2ccccc2)CN2CCCC[C@@H]12` gave Methyltransferases inactive.
`O=C(Nc1ccc2c(c1)OCCO2)N1Cc2ccccc2-n2cccc2C1c1ccc(F)cc1` (stereo unspecified) gave Methyltransferases inactive.
O=C(Cc1ccc(Cl)c(Cl)c1)N1CCCCC1CN1CCCC1 (stereo unspecified) was read as Methyltransferases inactive.
For CN1CCc2cc(O)cc3c2[C@H]1Cc1ccc(O)c(O)c1-3 the results were Methyltransferases active.
For CCc1ccccc1NC(=O)N1Cc2ccccc2-n2cccc2C1c1ccc(OC)c(OC)c1 (stereo unspecified) the results were Methyltransferases inactive.
`CSc1ccc(C2c3cccn3-c3ccccc3CN2C(=O)Nc2ccc(C)c(C)c2)cc1` (stereo unspecified) gave Methyltransferases inactive.
CCC1c2cccn2-c2ccccc2CN1C(=O)Nc1cccc(SC)c1 (stereo unspecified) was read as Methyltransferases inactive.
For O=C(NC1CCCC1)N1Cc2ccccc2-n2cccc2C1c1ccccc1Cl (stereo unspecified) the results were Methyltransferases inactive.
Screening COc1ccc(C2c3cccn3-c3ccccc3CN2C(=O)NC(C)C)cc1OC (stereo unspecified) returned Methyltransferases inactive.
`CCC(C)C1NC(=O)C(C(C)=O)=C1O` (stereo unspecified) gave Methyltransferases inactive.
`Cc1nc(CCN)no1` gave Methyltransferases inactive.

More records follow:
`CCc1ccc(C2c3cccn3-c3ccccc3CN2C(=O)Nc2ccc3c(c2)OCCO3)cc1` (stereo unspecified) gave Methyltransferases inactive.
For O=C(N[C@@H]1N=C(c2ccccc2F)c2cccc3c2N(CC3)C1=O)c1cc2ccccc2[nH]1 the results were Methyltransferases inconclusive.
COc1ccc(NC(=O)N2Cc3ccccc3-n3cccc3C2c2cc(F)cc(F)c2)cc1OC (stereo unspecified) was read as Methyltransferases inactive.
Screening COCCCNC(=O)N1Cc2ccccc2-n2cccc2C1c1cc(F)cc(F)c1 (stereo unspecified) returned Methyltransferases inactive.
Cc1ccc(C2c3cccn3-c3ccccc3CN2C(=O)Nc2ccc(Br)cc2)cc1 (stereo unspecified) was read as Methyltransferases inactive.
For CC(C)C1c2cccn2-c2ccccc2CN1C(=O)Nc1ccc(Cl)cc1 (stereo unspecified) the results were Methyltransferases inactive.
For O=C(NCc1ccc(F)cc1)[C@H]1CN2CC[C@H]1C[C@@H]2Cn1cc(-c2ccccc2)nn1 the results were Methyltransferases inactive.
Screening Cc1ccc(C2c3cccn3-c3ccccc3CN2C(=O)Nc2ccc(F)cc2)cc1 (stereo unspecified) returned Methyltransferases inactive.
COC(=O)CCNC(=O)N1Cc2ccccc2-n2cccc2C1c1ccc(F)cc1 (stereo unspecified) was read as Methyltransferases inactive.
Oc1ccc2c3c1O[C@H]1[C@H](N(CCCl)CCCl)CC[C@@]4(O)[C@@H](C2)N(CC2CC2)CC[C@]314 was read as Methyltransferases inactive.
`Cc1cccc(C2c3cccn3-c3ccccc3CN2C(=O)Nc2ccc(C)cc2C)c1` (stereo unspecified) gave Methyltransferases inactive.
CNc1ncc(C(=O)N2C[C@H]3COc4ccccc4C[C@@]3(C(=O)O)C2)cn1 was read as Methyltransferases inactive.
C/C=C(\C)C(=O)OC1CC2C(CC=C3CC(OC4CC(OC)C(OC5CC(OC)C(OC6OC(C)C(OC7OC(CO)C(O)C(O)C7O)C(OC)C6O)C(C)O5)C(C)O4)CCC32C)C2(O)CCC(C(C)=O)C12C (stereo unspecified) was read as Methyltransferases inactive.
CC(C)(O)[C@H]1O[C@H]2CC[C@@]3(C)[C@@](O)(CC[C@H]4Cc5c([nH]c6ccccc56)[C@@]43C)C2=CC1=O was read as Methyltransferases inactive.
`CN1C(=O)[C@]23CC4C(C)(C)[C@@]5(C[C@@]41CN2CC[C@@]3(C)O)C(=O)Nc1c5ccc2c1OC=CC(C)(C)O2` (stereo partly specified) gave Methyltransferases inactive.
For COC(=O)CCNC(=O)N1Cc2ccccc2-n2cccc2C1c1ccc(OC)cc1 (stereo unspecified) the results were Methyltransferases inactive.
For COc1ccc(Cl)cc1NC(=O)N1Cc2ccccc2-n2cccc2C1c1ccc(F)cc1 (stereo unspecified) the results were Methyltransferases inactive.
For CCOc1ccccc1NC(=O)N1Cc2ccccc2-n2cccc2C1C(C)C (stereo unspecified) the results were Methyltransferases inactive.
COc1ccc(C2c3cccn3-c3ccccc3CN2C(=O)Nc2ccc(F)cc2)cc1OC (stereo unspecified) was read as Methyltransferases inactive.
`COc1cccc(CNC(=O)N2Cc3ccccc3-n3cccc3C2c2ccc(C)cc2)c1` (stereo unspecified) gave Methyltransferases inactive.
`CCOc1ccccc1NC(=O)N1Cc2ccccc2-n2cccc2C1c1ccc(OC)cc1` (stereo unspecified) gave Methyltransferases inactive.
`O=C(NC1CCCC1)N1Cc2ccccc2-n2cccc2C1c1cccs1` (stereo unspecified) gave Methyltransferases inactive.
Screening O=C(NCc1ccccc1)N1Cc2ccccc2-n2cccc2C1c1cccc(Cl)c1 (stereo unspecified) returned Methyltransferases inactive.
Screening CCOC(=O)C1CCC(CNC(=O)N2Cc3ccccc3-n3cccc3C2c2ccc(F)cc2)CC1 (stereo unspecified) returned Methyltransferases inactive.
Screening CCOCCCNC(=O)N1Cc2ccccc2-n2cccc2C1c1ccc(SC)cc1 (stereo unspecified) returned Methyltransferases inactive.
Screening CC[C@H]1CN2CC[C@H]1C[C@@H]2CNCc1ccc(-c2ccccc2)cc1 returned Methyltransferases active.
For CCOCCCNC(=O)N1Cc2ccccc2-n2cccc2C1c1ccc(OC)cc1 (stereo unspecified) the results were Methyltransferases inactive.
`CC(C)c1ccc(C2c3cccn3-c3ccccc3CN2C(=O)NCc2ccc(F)cc2)cc1` (stereo unspecified) gave Methyltransferases inactive.
CN1CCC[C@@H]1Cc1c[nH]c2ccc(Nc3ncccc3[N+](=O)[O-])cc12 was read as Methyltransferases active.
N#Cc1ccccc1-c1cc(-c2ccccn2)cn(-c2ccccc2)c1=O was read as Methyltransferases inconclusive.
COC1C(O)C(C)OC(OC2C(CO)O[C@@H](O[C@@H]3CC4CCC5C(CC[C@]6(C)[C@@H](C7=CC(=O)OC7)CC[C@]56O)[C@@]4(C)[C@H](OC(C)=O)C3)C(O)C2O)C1O (stereo partly specified) was read as Methyltransferases inactive.
`CC(=O)c1cccc(NC(=O)NC[C@H]2C[C@@H]3CCN2C[C@@H]3c2cc(-c3ccc(F)cc3)nc(C)n2)c1` gave Methyltransferases active.
For COc1ccc(C23CCC(=O)C=C2N(C)CC3)cc1OC (stereo unspecified) the results were Methyltransferases inactive.
For CCC1C2CC3C4N(C)c5ccccc5C45CC(C2C5O)N3C1O (stereo unspecified) the results were Methyltransferases inactive.
For Cc1ccc(NC(=O)N2Cc3ccccc3-n3cccc3C2c2cccs2)c(Cl)c1 (stereo unspecified) the results were Methyltransferases inactive.
For COc1ccc2[nH]c3c(c2c1)CCNC3 the results were Methyltransferases inconclusive.
Screening COc1ccc(NC(=O)N2Cc3ccccc3-n3cccc3C2c2ccccc2)cc1 (stereo unspecified) returned Methyltransferases inactive.
Screening COc1ccc(C2c3cccn3-c3ccccc3CN2C(=O)Nc2ccc(C)c(C)c2)cc1OC (stereo unspecified) returned Methyltransferases inactive.
Cc1ccc(NC(=O)N2Cc3ccccc3-n3cccc3C2c2ccc(N(C)C)cc2)cc1 (stereo unspecified) was read as Methyltransferases inactive.
CCOC(=O)c1cccc(NC(=O)N2Cc3ccccc3-n3cccc3C2c2ccccc2Cl)c1 (stereo unspecified) was read as Methyltransferases inactive.
`C[C@]12CC[C@H](O)C[C@H]1CC[C@@H]1[C@@H]2[C@H](O)C(=O)[C@]2(C)[C@@H](c3ccc(=O)oc3)CC[C@]12O` gave Methyltransferases inactive.
CO[C@H]1C[C@H](O[C@H]2CC[C@]3(CO)[C@H]4CC[C@]5(C)[C@@H](C6=CC(=O)OC6)CC[C@]5(O)[C@@H]4CC[C@]3(O)C2)O[C@H](C)[C@H]1O was read as Methyltransferases inactive.
Screening CCOCCCNC(=O)N1Cc2ccccc2-n2cccc2C1c1ccc(OCC)cc1 (stereo unspecified) returned Methyltransferases inactive.
`O=C1CN=C(c2ccccc2Cl)c2cc(Br)ccc2N1` gave Methyltransferases inconclusive.
Screening CC(C)C1c2cccn2-c2ccccc2CN1C(=O)Nc1ccc(F)c(Cl)c1 (stereo unspecified) returned Methyltransferases inactive.
`CCOC(=O)CNC(=O)N1Cc2ccccc2-n2cccc2C1c1ccccc1Cl` (stereo unspecified) gave Methyltransferases inactive.
Screening O=C(Nc1ccccc1)N1Cc2ccccc2-n2cccc2C1c1ccccc1 (stereo unspecified) returned Methyltransferases inactive.

Screening data: PubChem BioAssay, National Center for Advancing Translational Sciences (NCATS)
